# Source: PubChem BioAssay
# KCNQ2 block: KCNQ2 channel blockers in CHO-K1 cells – cell-based, FluxOR thallium flux, B-score, primary screen (AID 2156); O88943; B-score at 10 µM; 20 min; hits give low values; only compounds with negative scores are shown here; some inactives read as strong as hits; 1.1% of 310,000 active;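 active = fluorescence ratio B-score at most minus 3 library SDs, with starting brightness B-score within 2 library SDs, cut at about -5.5 in these data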
# Target sequence (O88943 whole entry, looked up): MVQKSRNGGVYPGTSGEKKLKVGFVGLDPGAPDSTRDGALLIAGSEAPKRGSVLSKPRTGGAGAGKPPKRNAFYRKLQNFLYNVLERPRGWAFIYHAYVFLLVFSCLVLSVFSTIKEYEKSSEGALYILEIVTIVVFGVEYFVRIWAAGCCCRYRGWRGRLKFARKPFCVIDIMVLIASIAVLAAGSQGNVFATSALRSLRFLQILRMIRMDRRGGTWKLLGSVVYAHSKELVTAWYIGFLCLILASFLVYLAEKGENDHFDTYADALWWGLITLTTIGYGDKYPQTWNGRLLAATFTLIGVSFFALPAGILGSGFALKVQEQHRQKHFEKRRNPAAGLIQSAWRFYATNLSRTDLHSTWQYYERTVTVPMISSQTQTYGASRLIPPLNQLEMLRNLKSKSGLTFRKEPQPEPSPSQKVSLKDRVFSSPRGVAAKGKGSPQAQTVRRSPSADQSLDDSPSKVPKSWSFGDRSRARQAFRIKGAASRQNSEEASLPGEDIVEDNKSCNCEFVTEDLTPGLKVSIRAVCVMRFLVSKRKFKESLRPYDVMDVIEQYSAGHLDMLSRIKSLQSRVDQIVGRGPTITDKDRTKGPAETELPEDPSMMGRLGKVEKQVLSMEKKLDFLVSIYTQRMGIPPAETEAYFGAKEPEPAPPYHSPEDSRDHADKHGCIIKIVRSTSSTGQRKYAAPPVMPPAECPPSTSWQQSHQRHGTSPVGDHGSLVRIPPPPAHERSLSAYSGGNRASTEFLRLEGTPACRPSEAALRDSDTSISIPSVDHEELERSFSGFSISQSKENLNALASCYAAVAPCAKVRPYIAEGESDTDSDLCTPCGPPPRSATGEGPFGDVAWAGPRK
# KCNQ2 block baseline: second read-out of KCNQ2 block, no call of its own (marks repeat the call); B-score; measured here: initial fluorescence intensity artifact check;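 brightness before thallium and not channel activity; 0 = typical well and far values either way flag optical interference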
# The depositor's hits bear a star; i = inactive.
SMILES,KCNQ2 block,KCNQ2 block baseline
CCN(CC)S(=O)(=O)c1ccc2c(c1)nc(SCn1nnc3ccccc3c1=O)n2CC,i,0.04
COc1ccc(CC(=O)OCC(=O)Nc2ccc(Cl)cn2)cc1,i,-0.11
CC/C(=N\NC(=O)c1ccc(Br)cc1)c1ccccc1,i,0.34
Cc1ccc(C(=O)Nc2ccc3c(c2)CCC3)o1,i,5.9
Cc1ccccc1Nc1nc(N2CCOCC2)nc(N2CCOCC2)n1,i,-0.64
CC1C(O)=C(c2nc3ccccc3[nH]2)C(=N)N1c1ccccc1 (stereo not given),i,0.58
O=C(CCN1CCN(c2ccccc2)CC1)NNC(=S)Nc1ccccc1,i,-0.98
C(=N\Nc1ccc2nncn2n1)/c1ccco1,i,-0.33
CC(C)NC(=O)/C(C#N)=C/c1cccc(NC(=O)c2ccccc2Cl)c1,i,-2.5
Cc1ccc(C(=O)NCCC(=O)N2CCC3(CC2)NCCc2[nH]cnc23)cc1C,i,0.61
Cn1c(NC(=O)c2cc(-c3ccc4c(c3)OCO4)nc3ccccc23)cc(=O)n(C)c1=O,i,1.4
Cc1ccnc(NC(=O)CNC(=O)c2ccc3ccccc3c2)c1,i,2.7
C/C(=N/NC(=O)c1sc(=S)n(C)c1C)c1ccccc1,i,1.1
CCN1C(=O)[C@H]2[C@@H](c3ccc(-c4ccc(C(C)=O)cc4)c(OC)c3)N[C@@](Cc3ccccc3)(C(=O)OC)[C@H]2C1=O,i,-0.23
CCn1c2ccc(C)cc2c2nc3cc(C(=O)O)ccc3nc21,i,-1.2
CCOC(=O)C1=NNC(C(=O)c2ccccc2)C1c1ccc(C)cc1 (stereo not given),i,1.3
Cc1cc(C)c2nc(NC(=O)C3CCCO3)sc2c1 (stereo not given),i,-1.2
CCn1cc(C(=O)N2CCCC2)c(=O)c2cc(S(=O)(=O)N3CCC(C)CC3)ccc21,i,0.65
Cn1c(SCc2nc(-c3ccccc3)no2)nnc1-c1ccco1,i,-0.23
Cc1ccccc1Nc1nc(-c2ccccc2)c(C(=O)Nc2cccnc2)s1,i,-0.01
CN(C(=O)CSc1ccncc1)C1CCCN(Cc2ccccc2F)C1 (stereo not given),i,1.4
CCC(C)NC(=O)CSc1nnc(-c2ccoc2C)n1CC1CCCO1 (stereo not given),i,1.6
COc1ccc(OC)c(-c2cc(C(=O)Nc3cc(C)n(Cc4ccc(Cl)cc4)n3)no2)c1,i,-0.58
Cc1nn(C)c(C)c1NC(=O)Nc1cccc(C(F)(F)F)c1,i,0.62
O=[N+]([O-])c1cc(C(F)(F)F)ccc1Sc1ccc2ccccc2n1,i,0.41
# The results go on.
SMILES,KCNQ2 block,KCNQ2 block baseline
CCCS(=O)(=O)c1nc(C)cc(C)c1S(C)(=O)=O,i,1.2
Cc1c(C(=O)NCc2ccccc2)c(-c2ccccc2)nn1-c1ccccc1,-5.6*,-0.02*
O=C(CSc1cccc[n+]1[O-])N1CCc2ccccc21,i,-0.31
CN1C(=O)CC(N2CCN(c3ccc(Cl)cc3)CC2)C1=O (stereo not given),i,2.8
COc1cc(CCCN2C(=S)NC[C@H]2Cc2ccc(O)cc2)cc(OC)c1OC,i,-0.08
O=C(N/N=C/c1ccc2c(c1)OCO2)c1sc2cc(Cl)ccc2c1Cl,i,2.5
COc1ccc(OC)c(NC(=O)CN2CCC(C(=O)c3ccc(C)cc3)CC2)c1,i,-0.23
N#Cc1ccccc1NCc1ccccc1,i,-0.4
Cc1ccc(-n2ncc3c2CCCC3NC(=O)CCCN2CCCC2=O)cc1C (stereo not given),i,-0.07
COCCNC(=O)C(C)Oc1ccccc1 (stereo not given),i,-0.12
CCOC(=O)c1cnc(-n2nc(C)cc2C)nc1Oc1ccc(C(=O)OC)cc1,i,-1.2
O=C(CCCc1ccccc1)Nc1ccnn1C1CCN(Cc2ccccc2F)CC1,i,-2
CC1(c2ccc(OC(F)F)cc2)NC(=O)N(CC(=O)Nc2ccc(Cl)cc2F)C1=O (stereo not given),i,0.42
O=C(CCCSc1nc2ccccc2s1)NC1=NCCS1,i,1.8
Cc1ccc(NC(=O)CN2C(=O)COc3ccc(C)cc32)nc1,i,0.66
CCOC(=O)C1(Cc2ccccc2)CCCN(C2CCN(C(C)=O)CC2)C1 (stereo not given),i,0.84
C=C(C)CNC(=S)N/N=C(\C)c1cccc(NC(C)=O)c1,i,0.87
COc1ccc(/C=C(/NC(=O)c2ccccc2)C(=O)NCCCn2ccnc2)cc1OC,i,0.79
CCOC(=O)c1nnc(-c2ccccc2)nc1N1CC(C)OC(C)C1 (stereo not given),i,0.51
O=C(C1CCN(C2CCN(C/C=C/c3ccccc3)CC2)CC1)N1CCOCC1,i,-0.16
COc1ccc(CC(=O)N(C)Cc2cccc(OC)c2OC)cc1S(=O)(=O)N1CCOCC1,i,1.4
COc1ccc(CNC(=O)N2CCc3ccccc3C2)cc1,i,-0.05
Cc1ccc(S(=O)(=O)c2cc3c(=O)n4ccccc4nc3n(CCCN3CCOCC3)c2=N)cc1C,i,2
Cc1ccc(C)c(NC(=S)N(CCc2ccncc2)C(C)C)c1,i,0.11
CCc1nc(SCC(=O)NNC(=O)C(C)C)c2ccccc2n1,i,1.5
# (list continues)
SMILES,KCNQ2 block,KCNQ2 block baseline
Cc1cc(C(C)(C)C)cc(C)c1COC(=O)c1cccnc1,i,-0.39
O=C(Nc1c(C(=O)NCc2ccco2)cnn1-c1ccccc1)c1cccc(F)c1,i,-0.11
CCOC(=O)C1CCN(C(=O)CNC(=O)c2nn(-c3ccc(OC)c(Cl)c3)c(=O)c3ccccc23)CC1,i,3.5
FC(F)(F)c1ccc(Nc2nnnc3ccccc23)cc1,i,-1.2
CC(C)N(CCO)C(=O)C(c1ccccc1)c1ccccc1,i,-0.83
COc1ccccc1-c1sc2ccccc2c1-c1ccc2c(c1)OCO2,i,-0.02
Cc1c(O)ccc(-c2n[nH]c(C(=O)O)c2-c2nc3ccccc3s2)c1O,i,1.9
COc1cccc(CN2CCN(C(=O)c3ccc(-c4ccccc4)cc3)CC2)c1OC,i,0.59
CCn1c(SCC(=O)Nc2ccc(NC(=O)c3ccco3)cc2)nnc1-c1cccs1,i,-0.27
O=C(c1ccc(NS(=O)(=O)c2cccc3cccnc23)cc1)N1CCOCC1,i,2.4
CCCC1(C(=O)OC)NC(c2ccc(OC)cc2OC)C2C(=O)N(c3cccc(C(C)=O)c3)C(=O)C21 (stereo not given),-5.9*,1.1*
CCOC(=O)c1ccc(NC(=O)C(CC)CC)cc1,i,-0.05
O=C(NCc1ccco1)C1CCN(c2nc3ccccc3n2Cc2ccccc2F)CC1,i,0.63
Cc1ccc(C)c(S(=O)(=O)N2CCN(C(C(=O)Nc3ccc(F)cc3)c3ccccc3)CC2)c1 (stereo not given),i,-2.2
O=C(c1ccc2[nH]c(=O)c(=O)[nH]c2c1)N1CCN(Cc2ccccc2)CC1,i,-0.84
COc1ccc(NC2=C(C(C)=O)C(c3ccc(OC)c(OC)c3)C(C(C)=O)C(C)(O)C2)cc1 (stereo not given),i,-0.01
Cc1ccc2nc(Cl)c3nnnn3c2c1,i,0.5
COc1ccc(Nc2nc3ccccc3nc2NS(=O)(=O)c2ccc(NC(C)=O)cc2)cc1,i,-0.38
COc1ccc(C(=O)NCC(=O)N=Nc2c(O)n(Cc3ccccc3)c3ccccc23)cc1OC,i,0.26
Cc1ccc(O)c(N=NC2=C(O)CC(C)(C)CC2=O)c1,i,0.49
Cc1sc(NC(=O)C2C3CCC(O3)C2C(=O)O)nc1-c1ccc(CC(C)C)cc1 (stereo not given),i,1.5
Cc1ccc(N/C(C(Cl)=C(Cl)Cl)=C(/Cl)[N+](=O)[O-])c(C)c1,i,-0.1
CCOC(=O)N1CCN(C(=O)Cc2cccs2)CC1,i,1.9
N#Cc1c(NCCO)nc(NCc2ccccc2)c2c1CCN(Cc1ccccc1)C2,i,0.19
CCNc1c([N+](=O)[O-])c(=O)n(CC)c2ccccc12,i,-0.3

# An excerpt of these results, with two lines to a compound:
# Sequence of screens – KCNQ2 block, KCNQ2 block baseline
- O=C(c1ccc2[nH]c(=O)c(=O)[nH]c2c1)N1CCN(Cc2ccccc2)CC1
    i, -0.84
- COc1ccc(NC2=C(C(C)=O)C(c3ccc(OC)c(OC)c3)C(C(C)=O)C(C)(O)C2)cc1 (stereo not given)
    i, -0.01
- Cc1ccc2nc(Cl)c3nnnn3c2c1
    i, 0.5
- COc1ccc(Nc2nc3ccccc3nc2NS(=O)(=O)c2ccc(NC(C)=O)cc2)cc1
    i, -0.38
- COc1ccc(C(=O)NCC(=O)N=Nc2c(O)n(Cc3ccccc3)c3ccccc23)cc1OC
    i, 0.26

# Remaining list, next part.
SMILES,KCNQ2 block,KCNQ2 block baseline
COc1cc(C(=S)N2CCN(c3ccccc3Cl)CC2)cc(O)c1O,i,-1.5
Cc1ccc2c(c1C)OC(=O)CC2c1ccccc1 (stereo not given),i,2.7
Cc1cc(C)n2nc(C(=O)Nc3cccnc3)nc2n1,i,2.1
CC(C)N1CCN(Cc2cccn2-c2cccnc2)CC1CCO (stereo not given),i,1.1
COc1ccc(C/C(C)=N/NS(=O)(=O)c2ccc(Br)cc2)cc1,i,-0.03
COc1ccc(C)cc1NC(=O)NC1CCCc2ccccc21 (stereo not given),i,0.81
Cc1ccc(C(=O)N2CCN(c3ccccc3)CC2)cc1C,i,1.2
CCOCc1nnc(NC(=O)c2cc(OC)c(OC)cc2[N+](=O)[O-])s1,i,-0.08
COC(=O)c1cc(OC)c(OC)cc1NC(=O)c1csc(C)c1,i,0.52
COc1ccc(-c2cnnc(N/N=C/c3ccc(C)o3)n2)cc1,i,0.22
CCOC(=O)N1CCC(N2CCN(S(=O)(=O)c3ccc(C)cc3)CC2)CC1,i,0.64
Cc1nn(CC(=O)Nc2c(F)c(F)cc(F)c2F)c(=O)c2cccn12,i,-0.74
O=S(=O)(Nc1ccc(N2CCOCC2)cc1)c1cccs1,i,-0.01
COc1ccc(Oc2c(O)c3ccccc3n(C)c2=O)cc1,i,-1.5
N#CC(c1ccc(Cl)cc1)c1ncc(C(F)(F)F)cc1Cl (stereo not given),i,0.68
COc1ccc(-c2csc(NC(=O)CN3C(=O)CCC3=O)n2)cc1,i,1.6
O=C(COc1ccc(/C=C2/NC(=O)NC2=O)cc1)Nc1ccc(F)cc1,i,0.03
Cn1cc(CNC(=O)CC2C(=O)NCCN2CC(C)(C)C)cn1 (stereo not given),i,1.2
COc1cc(C(C(=O)NC2CCCC2)N(C(=O)Cc2cccs2)C2CC2)cc(OC)c1OC (stereo not given),i,-1.7
CC(C)c1ccc(S(=O)(=O)N2CCN(C(C)C(=O)Nc3ccccc3-c3ccccc3)CC2)cc1 (stereo not given),i,1.1
CCOc1cc(C(=O)NN=C2CCCC2)cc(OCC)c1OCC,i,0.57
O=c1c2c(nc3n1CCCCC3)-c1ccccc1CC21CCCC1,i,0.05
CN1C(=O)S/C(=C/c2ccc(OCc3cccc(C(=O)O)c3)cc2)C1=O,i,2.4
Nn1c(SCC(=O)NCCCc2ccccc2)nnc1-c1cccnc1,i,0.78
COC(=O)c1cc(OC)c(OC)cc1NC(=O)c1cccc(OC)c1OC,i,-3.9
# The listing continues.
SMILES,KCNQ2 block,KCNQ2 block baseline
COc1ccccc1CN1CC(C(=O)N(C)CCCn2nc(C)cc2C)CCC1=O (stereo not given),i,-0.56
CC(=O)C1=C(C)OC(N)=C(C#N)C1c1ccco1 (stereo not given),i,-0.45
CCOC(=O)CCCCC(=O)c1[nH]c(=O)[nH]c1CSc1nnc2c3ccccc3n(C(C)C)c2n1,i,-0.69
Cc1c(OCc2ccccc2)c(=O)ccn1Cc1ccc(F)cc1,i,0.42
O=C(CC1C(=O)NC2CCCCC2N1C(=O)c1ccc([N+](=O)[O-])cc1)Nc1ccccc1 (stereo not given),i,5
COc1cccc(NC(=O)CCC2CCN(Cc3nccs3)CC2)c1,i,-1.8
CSCCC(NC(=O)COc1ccccc1)C(=O)N1CCCCC1 (stereo not given),i,-1
Nn1c(Cc2ccc(F)cc2)n[nH]c1=S,i,0.68
CCOC(CNC(=O)Cn1nc(C)c2ccccc21)OCC,i,2.2
COC(=O)/C(C#N)=C/c1c(N2CCN(C)CC2)nc2ccccn2c1=O,i,0.93
CN1C(=S)SC(C)(C)C1(C)NO (stereo not given),i,-2.1
CC(C)OC(=O)Cn1c(=O)oc2ccccc21,i,-1.8
CCN(CC)CCCNCC(=O)Nc1ccc2c(c1)CCC2,i,1.3
CCOc1ccc(S(=O)(=O)N(CC(=O)N2CCC(C(N)=O)CC2)c2ccc(F)cc2)cc1,i,-0.06
CC1CCN(C(=O)c2cc(-c3ccc4c(c3)OCO4)on2)CC1,i,-0.74
COc1ccc(N=c2oc3ccccc3cc2C(=O)Nc2ccccn2)cc1OC,i,-0.14
N#CCCn1cc(C(=O)Nc2ccccc2Br)c(-c2cccs2)n1,i,-1
O=C(Nc1cccc(Cl)c1N1CCOCC1)c1cc([N+](=O)[O-])ccc1N1CCOCC1,i,-2.1
CC(=O)NCC(=O)OCC(=O)Nc1nc(-c2ccccc2)cs1,i,-0.76
OCc1ccccc1OCCCOc1cccc2cccnc12,i,0.75
CCOC(=O)C1=C(C)N(C)C(=O)NC1c1cc2c(cc1[N+](=O)[O-])OCO2 (stereo not given),i,1
O=C(COc1ccccc1-c1ccccc1)c1ccccc1,i,-1.8
CC(C)Nc1nc(-c2ccccn2)nc(-c2ccccc2)c1C#N,i,-0.55

# For convenience, some entries already given:
SMILES,KCNQ2 block,KCNQ2 block baseline
COc1ccc(OC)c(-c2cc(C(=O)Nc3cc(C)n(Cc4ccc(Cl)cc4)n3)no2)c1,i,-0.58
Cc1nn(C)c(C)c1NC(=O)Nc1cccc(C(F)(F)F)c1,i,0.62
O=[N+]([O-])c1cc(C(F)(F)F)ccc1Sc1ccc2ccccc2n1,i,0.41
CCCS(=O)(=O)c1nc(C)cc(C)c1S(C)(=O)=O,i,1.2
Cc1c(C(=O)NCc2ccccc2)c(-c2ccccc2)nn1-c1ccccc1,-5.6*,-0.02*
O=C(CSc1cccc[n+]1[O-])N1CCc2ccccc21,i,-0.31
CN1C(=O)CC(N2CCN(c3ccc(Cl)cc3)CC2)C1=O (stereo not given),i,2.8

# Only part of the results is shown; the hit share may differ from the screen's.
